Assay outcomes (PubChem)
Methyltransferases = Primary Screen for Target Class Profiling of Small Molecule Inhibitors of Methyltransferases | hit rate 3.9% among 25,000 | calls only at 40 µM | AID 1745853, 2022 | purified enzyme, MTase-Glo SAH luminescence; active compounds read low; active = -50% or lower on at least one of six enzymes; inconclusive = the cases between; inactive = as a rule above -30% on all six;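 also: enzymes were COMT GAMT GNMT HNMT NNMT and PNMT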
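Each enzyme was assayed with SAM and its substrate. SAH formation detected by MTase-Glo luminescence; single-point 40 uM screen[…].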
Calls only; i = inactive; u = inconclusive; + = active, no number. % is scaled to controls: 0 for no effect and ±100 for the full control effect. Not all compounds are listed. The share of hits here may be higher or lower than overall.

Molecule	Methyltransferases
CC(C)OCCCNC(=O)CCc1nnc2n(Cc3ccccc3Cl)c(=O)c3ccccc3n12	i
Cc1ccc(COC(=O)N2CC[C@@H](CNc3ncccn3)[C@@H](F)C2)cc1	i
COc1cc(Cl)c(C)cc1NS(=O)(=O)c1ccc2c(c1)n(C)c(=O)n2C	i
O=C(Nc1ccc(S(=O)(=O)C(F)(F)F)cc1)C1=CCN(c2ncccc2C(F)(F)F)CC1	i
CCc1cc(NCC(c2ccc(C)o2)N2CCOCC2)n2nccc2n1 (stereo not drawn)	i
Cc1cccc(Cn2nc3n(Cc4ccccc4)c(=O)c4ccc(C(=O)NCC(C)C)cc4n3c2=O)c1	i
CC1CCC2(C)C(CC(O)C(O)C23CO3)C1(C)CCC1=CC(O)OC1=O (stereo not drawn)	i
Cc1cccc(CCNC(=O)CCc2nnc3n(Cc4ccccc4)c(=O)c4ccccc4n23)c1	i
Cc1cnc(-c2ccncc2)n1CCNC(=O)NCc1ccc(F)cc1	i
CCn1ncc(NC(=O)Cn2ncc3cc(-c4ccccc4F)ccc32)n1	i
Cc1cccc(N2C(=O)c3cc4ccccc4n3CC2(C)C(=O)NCCC(C)C)c1C (stereo not drawn)	i
CCc1ccc(NC(=O)CSc2nnc3n(CCCOC(C)C)c(=O)c4ccccc4n23)cc1	i
COc1cccc(CN2C(=O)c3cc(C4CC4)nn3CC2(C)C(=O)NC2CCCCCC2)c1OC (stereo not drawn)	i
O=C(c1n[nH]c2c1CCCCCC2)N1CCc2c(nc3cc(-c4ccccc4)[nH]n3c2=O)C1	i
CCCC1c2ccc(C)n2CCN1C(=O)Nc1cccc(C)c1 (stereo not drawn)	i
O=C(NCCc1cccs1)c1cc2n(n1)CCCN(Cc1ccc(F)cc1)C2=O	i
CN(C)C(=O)[C@]12CCCC[C@@H]1N(CCc1ccccc1)C(=O)CC2	i
COc1ccc([C@H]2C[C@@H](O)[C@@H](O)[C@@H]2NCc2ccc(OC)nc2)cc1	i
CN(CCc1nc2ccc(Cl)cc2[nH]1)c1cc(C2CC(O)C2)nc(N)n1 (stereo not drawn)	+
O=C(N1CCCCCC1CN1CCOCC1)C1(c2ccccc2)CC1 (stereo not drawn)	i
Cc1ccc(Nc2ccn3c(=O)n(CC(=O)Nc4cc(F)ccc4F)nc3n2)cc1	i
O=C(c1cc(F)ccc1F)N1CCC(Oc2cccnc2)C1 (stereo not drawn)	i
CCC(C)NC(=O)c1ccc2c(=O)n(Cc3ccccc3)c3nn(Cc4ccc(C)cc4)c(=O)n3c2c1 (stereo not drawn)	i
C[C@@H]1CN(c2nc(-c3ccccc3)no2)CC[C@@]1(O)C1CCC1	i
CC(c1ccon1)N(C)C(=O)c1csc2nc(-c3cccc(C(F)(F)F)c3)cn12 (stereo not drawn)	i
O=C(c1ccc(Nc2nn3c(=O)c4ccccc4nc3s2)cc1)N1CCN(C2CCCCC2)CC1	i
COCCOCc1nc(C2CCN(C(=O)Nc3ccc(C(=O)OC)cc3)CC2)no1	i
C/C=C/c1cc(OC)c2c(c1)[C@@H](C)[C@@H](c1ccc(O)c(OC)c1)O2	+
O=C(CCc1nnc2n(Cc3ccc(F)cc3)c(=O)c3ccccc3n12)NCCC1=CCCCC1	i
CC(C)OCCCn1c(=O)c2ccccc2n2c(SCc3c(F)cccc3Cl)nnc12	i
Cc1cccc(-c2n[nH]n3c2nc(=O)c2ccc(C(=O)NCc4ccccc4)cc23)c1	i
O=C(Cn1ccc2cc(S(=O)(=O)N3CCCCC3)ccc21)NCc1ccco1	i
Cc1ccc(Cn2c(=O)c3ccccc3n3c(CCC(=O)N4CCN(c5ccc(Cl)cc5)CC4)nnc23)cc1	i
OCC1OC(Oc2cc(O)cc(/C=C/c3ccc(OC4OC(CO)C(O)C(O)C4O)cc3O)c2)C(O)C(O)C1O (stereo not drawn)	i
Cc1noc2c(-c3cccc(CO)c3)cc(-c3cccc(C(F)(F)F)c3)nc12	i
COC(=O)c1ncn2c1C(=O)N(Cc1cccc(OC)c1OC)C(C)(C(=O)NC1CCCCC1)C2 (stereo not drawn)	i
CN1CCN(c2ccc(-c3nccc4c(=O)cc(N(C)C5CCOCC5)oc34)cn2)CC1	i
CCOc1ccccc1NC(=O)C1CCN(c2cnc3nccnc3c2)CC1	i
CC(C)n1c(=O)c2ccc(C(=O)NC3CCCC3)cc2n2c(=O)n(Cc3ccc(F)cc3Cl)nc12	i
CCCn1c(=O)c2ccccc2n2c(=O)n(Cc3cccc(Cl)c3)nc12	i

Part of the list above in order of molecular weight, low to high.
Molecule	Methyltransferases
C/C=C/c1cc(OC)c2c(c1)[C@@H](C)[C@@H](c1ccc(O)c(OC)c1)O2	+
CCCn1c(=O)c2ccccc2n2c(=O)n(Cc3cccc(Cl)c3)nc12	i
Cc1noc2c(-c3cccc(CO)c3)cc(-c3cccc(C(F)(F)F)c3)nc12	i
Cc1cccc(-c2n[nH]n3c2nc(=O)c2ccc(C(=O)NCc4ccccc4)cc23)c1	i
COCCOCc1nc(C2CCN(C(=O)Nc3ccc(C(=O)OC)cc3)CC2)no1	i
O=C(CCc1nnc2n(Cc3ccc(F)cc3)c(=O)c3ccccc3n12)NCCC1=CCCCC1	i
COC(=O)c1ncn2c1C(=O)N(Cc1cccc(OC)c1OC)C(C)(C(=O)NC1CCCCC1)C2 (stereo not drawn)	i

Later entries
Molecule	Methyltransferases
Cc1ccc(S(=O)(=O)N2CCCCCC2c2nnc(C)o2)c(C)c1 (stereo not drawn)	i
CN1C(=O)c2cc(C(=O)NCCc3cccs3)nn2CC1(C)C(=O)NCc1ccccc1 (stereo not drawn)	i
CC(C)c1cc(C2CCN(Cc3cn[nH]c3-c3ccccc3)CC2)[nH]n1	i
CC(C)OCCCn1c(=O)c2ccccc2n2c(SCC(=O)Nc3cccc(F)c3)nnc12	i
O=C1OCc2cc3cccc(O[C@@H]4O[C@H](CO)[C@@H](O)[C@H](O)[C@H]4O)c3c(O)c21	u
Cc1nc(C2CC(O)C2)cc(N2CCC(OCc3cccnc3)CC2)n1 (stereo not drawn)	i
NC(=O)C1CCN(C(=O)CCc2nnc3n(CCc4ccccc4)c(=O)c4ccccc4n23)CC1	i
Cc1ccc(NC(=O)Cn2nc3n(C)c(=O)c4ccc(C(=O)NCC(C)C)cc4n3c2=O)cc1	i
COc1cccc(N2CCN(C(=O)CCn3ccn4nc5c(c4c3=O)CCCC5)CC2)c1	i
Cc1[nH]c2ccccc2c1CC(=O)NCc1ccccc1-n1cncn1	i
CCOC(=O)c1cc2n(n1)CC(C)(C(=O)NCc1ccccc1OC)N(c1cccc(F)c1)C2=O (stereo not drawn)	i
COc1cc([C@@H]2c3cc4c(cc3[C@H](O)[C@@H](CO)[C@@H]2C(=O)NC(C)C)OCO4)cc(OC)c1OC	i
CCOC(=O)COc1ccc2c(-c3ccccc3)cc(=O)oc2c1C	i
COc1cccc(Cn2nc3n(CC(C)C)c(=O)c4ccc(C(=O)NCC(C)C)cc4n3c2=O)c1	i
CC(=O)N1CCN(c2nc3c(s2)CC(C(=O)Nc2cc(Cl)ccc2F)CC3)CC1 (stereo not drawn)	i
C=C(C(=O)OC[C@H]1O[C@@H](OC(=O)/C=C/c2ccccc2)[C@H](O)[C@@H](O)[C@@H]1O)C(O)CO (stereo partly drawn)	i
CCCn1c(=O)c2ccc(C(=O)NCC(C)C)cc2n2c(SCC(=O)Nc3cccc(C)c3)nnc12	i
Cc1occc1C(=O)N1CCC2(CC1)N=C(CC(C)C)NC2=O	i
COc1ccc(OC)c(S(=O)(=O)N2CCC(C)CC2)c1	i
Cc1ccc2[nH]c(CCC(=O)N3CC[C@H](CO)[C@H](O)C3)nc2c1C	i
O=C(Cn1nc2n(Cc3ccccc3)c(=O)c3ccccc3n2c1=O)Nc1ccccc1F	i
CCc1ccc(CNC(=O)c2cc3n(n2)CC(C)(C(=O)NC2CCCCCC2)N(C)C3=O)cc1 (stereo not drawn)	i
CC1=CCC(O)C2(C)CCC3C(C)C(=O)OC3C12 (stereo not drawn)	+
CCCN1C(=O)c2c(C(=O)NCc3cc(OC)ccc3OC)ncn2CC1(C)C(=O)NC1CCCC1 (stereo not drawn)	i
CCN(CC)C(=O)[C@@H]1C[C@@H](n2cc(Cn3c(C)nc4ccccc43)nn2)CN1	i
COc1ccc(NC(=O)Cn2c(=O)oc3cc(S(=O)(=O)N4CCCC4)ccc32)cc1Cl	i
O=C(Cc1ccc2c(c1)OCO2)N1CCOCC2(CN(Cc3ccccc3)C2)C1	i
CC1CCC2C(C)(C)C(O)CCC2(C)C12Cc1c(O)cc3c(c1O2)CN=C3N (stereo not drawn)	i
O=C1NC[C@@H](CCC(=O)N2CCc3ccccc32)N2C[C@@H](NCc3ccc(CO)o3)C[C@@H]12	i
O=C(O)C[C@@H]1CCN(C(=O)Nc2ccc(C(F)(F)F)cc2)C[C@@H]1CCN1C[C@@H]2C[C@H](C1)c1cccc(=O)n1C2	i
Cc1ccc(S(=O)(=O)c2nnn3c2nc(NCCCN2CCCC2=O)c2cc(Cl)ccc23)cc1C	i
Cc1ccc(CC(=O)N2CCC3(C2)C(=O)N(C)c2ccccc23)cc1 (stereo not drawn)	i
Cn1nc(-c2nc(C3CCOC3)no2)cc1-c1ccccc1 (stereo not drawn)	i
COC(=O)[C@@H](C)NC(=O)[C@H]1CN(C(=O)c2cccnc2)CCN1S(=O)(=O)c1ccccc1	i
CC(NC(=O)CCn1ccc2cc(S(=O)(=O)N3CCCCC3)ccc21)c1ccccc1 (stereo not drawn)	i
CCC(C)NC(=O)c1ccc2c(=O)n(C)c3nn(CC(=O)Nc4ccc(F)cc4)c(=O)n3c2c1 (stereo not drawn)	i
N#C[C@@H]1C[C@@H]2C[C@@H]2N1C(=O)[C@@H](N)C12CC3CC(CC(O)(C3)C1)C2	i
CCC(C(=O)NCc1ccccc1)n1ccc2cc(S(=O)(=O)N3CCCCC3)ccc21 (stereo not drawn)	i
C=C1CC(=O)C2OC2(C)CC2OC(=O)C(=C)C2C(O)C1OC(=O)/C(C)=C\C (stereo not drawn)	u
CCn1cc(NC(=S)Nc2cc(Cl)ccc2OC)c(C(N)=O)n1	i

Part of the list above in another layout:
> COc1ccc(NC(=O)Cn2c(=O)oc3cc(S(=O)(=O)N4CCCC4)ccc32)cc1Cl
  Methyltransferases: i

> N#C[C@@H]1C[C@@H]2C[C@@H]2N1C(=O)[C@@H](N)C12CC3CC(CC(O)(C3)C1)C2
  Methyltransferases: i

(list continues)
canonical_smiles	Methyltransferases
NC(=O)c1ccc(N(C(N)=O)c2c(F)cccc2F)nc1-c1ccc(F)cc1F	i
O=C1c2cccnc2OC(COc2ccccc2)CN1Cc1cccs1 (stereo not drawn)	i
CC[S+](=O)([O-])N1C[C@@H](CO)[C@@H]2Oc3c(F)cccc3[C@@H]21	i
O=C(O)c1ccc2c(c1)N(C(=O)c1ccc(F)cc1)CC2	i
Cc1ccc(CCNS(=O)(=O)c2ccc3c(c2)n(C)c(=O)n3C)cc1	i
Cc1ccc(CN2CCC(C3CCN(S(C)(=O)=O)CC3)C2)o1 (stereo not drawn)	i
Cn1cc(CN2C[C@@H]3C[C@H](C2)c2ccc(NS(=O)(=O)c4cccc(F)c4)c(=O)n2C3)c2ccccc21	i
CC(=O)N[C@@H](CCCCN)C(=O)N(C)[C@@H](CC(C)C)C(=O)N[C@H](C(=O)N(C)[C@@H](Cc1ccccc1)C(=O)N[C@H](Cc1ccccc1)C(N)=O)C(C)C	i
C=CCCOC(=O)N1C[C@@H](CO)[C@@H]2Oc3ccc(Cl)cc3[C@@H]21	i
CC(=O)N1CCCC(c2nn(-c3ccccn3)c(=O)[nH]2)C1 (stereo not drawn)	i
CCc1cc(C(=O)N2CCC3(CCC(=O)N(CCc4cnc[nH]4)C3)CC2)cs1	i
Cc1cccc(-c2n[nH]n3c2nc(=O)c2ccc(C(=O)NCc4ccc(F)cc4)cc23)c1	i
Cc1noc(C)c1C(=O)N1CCC2(CC1)CN(C(=O)Cc1cccc(Cl)c1)CCO2	i
O=C(CSc1nnc2n(Cc3ccc(F)cc3)c(=O)c3ccccc3n12)Nc1ccc(F)cc1	i
COc1ccc(C(=O)N2CCC3(CC2)CN(c2ccccc2)C3=O)cc1OC	i
Cc1coc2c1C(=O)C(=O)c1c-2ccc2c(C)cccc12	i
CCC[C@H]1CN(C(=O)c2cc(=O)[nH]c3cc(F)ccc23)C[C@@H]1N	i
CCOC(=O)C1=C(N)Oc2ccc(Br)cc2C1C(C#N)C(=O)OCC (stereo not drawn)	i
CCCN1C(=O)c2c(C(=O)NCCC3=CCCCC3)ncn2CC1(C)C(=O)NCCC(C)C (stereo not drawn)	i
COC(=O)c1ncn2c1C(=O)N(Cc1cccc(Br)c1)C(C)(C(=O)NC1CCCC1)C2 (stereo not drawn)	i
Cc1ccccc1NC(=O)N1CCC(N(CCC(C)C)C2CCOCC2)CC1	i
COC(=O)C(C)(N)Cc1ccc(O)cc1 (stereo not drawn)	i
O=C(CCn1ccc2cc(S(=O)(=O)N3CCCC3)ccc21)NCCC1=CCCCC1	i
COc1cccc(N2C(=O)c3cc(-c4ccccc4)nn3CC2(C)C(=O)NCc2ccccc2)c1 (stereo not drawn)	i
O=C(NCc1nnc2n1C(C(=O)NCc1ccc(F)cc1)CC2)Nc1cccnc1 (stereo not drawn)	i
CC(C)NC(=O)CSc1nnc2n(Cc3ccc(F)cc3)c(=O)c3ccccc3n12	i
CCCN(CCC)C(=O)Cn1c(=O)oc2cc(S(=O)(=O)N3CC(C)CC(C)C3)ccc21 (stereo not drawn)	i
CN(C(=O)Cn1nc2n(C)c(=O)c3ccc(C(=O)NC4CCCCC4)cc3n2c1=O)c1ccccc1	i
CCNC(=O)[C@@H]1C[C@H](NC(=O)c2oc(C)nc2C)CN1Cc1nc(C)no1	i
CSCCC(NS(=O)(=O)c1ccc2c(c1)oc(=O)n2C)C(=O)NC1CCN(Cc2ccccc2)CC1 (stereo not drawn)	i
